ClpP mod – qHTS Assay for Activators of ClpP | purified B. subtilis ClpP, FRET peptide cleavage, 20 min | actives 1.9% (n = 340,000) | ATP-dependent Clp protease proteolytic subunit (Bacillus subtilis (strain 168)), P80244 | Potency, µM (titrated, usually from 57.5 µM), without a hit: at the top dose activity change, negative = active; active = well fitted falling curve with a large enough effect; inconclusive = small, poorly fitted or top-dose-only effect; inactive = no such curve, though single readings can be large or run the other way; further: potency means the concentration at half of the fitted maximal effect; the source files actives as falling curves though it sought activators and does not explain the sign; nearly all actives have a fitted effect of over 65% in size; many hits overshoot -100%
Target sequence (P80244 whole entry, looked up): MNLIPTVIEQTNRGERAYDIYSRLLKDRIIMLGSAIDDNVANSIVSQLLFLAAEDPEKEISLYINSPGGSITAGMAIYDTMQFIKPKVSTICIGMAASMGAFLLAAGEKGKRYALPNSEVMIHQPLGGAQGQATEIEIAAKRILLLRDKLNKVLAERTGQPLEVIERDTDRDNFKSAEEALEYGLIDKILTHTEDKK
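Purified B. subtilis ClpP, 10 microg/mL final in Tris/HCl pH8 with KCl, BSA, glycerol and Tween-20, cleaved an Abz/nitrotyrosine-quenched decapeptide. Fluorescence (ex 320, em 430) was read at 0 and 20 min at room temperature. Delta was normalized to 5.8 microM ADEP and DMSO/no-enzyme controls.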
Sfp PPTase inh – Sfp phosphopantetheinyl transferase inhibition | Q9F4F7 | Biochemical Sfp PPTase activity, qHTS | Potency, µM, for inactives: max response, negative = inhibition, most hits filed as inhibitors | actives 3.5% (n = 310,000); active means well fitted inhibition curve with a large enough effect; inconclusive means small, poorly fitted or top-dose-only effect, or another doubt; inactive means no such curve, though single readings can be large or run the other way;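 further: the enzyme is Sfp with the accession as filed and its product quenches rhodamine fluorescence; potency means the concentration at half of the fitted maximal effect; 0% = enzyme reaction without inhibitor and -100% = no enzyme wells; top concentration of the series not given in the record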
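After 15 min at room temperature with compound, 15 nM Sfp received 5 uM rhodamine-CoA plus 12.5 uM BHQ-2-ybbR (50 mM Hepes pH 7.6, 10 mM MgCl2). Rate came from the fluorescence difference over 30 min, ex 525/em 598 nm.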
Menin MLL FP FL – inhibitors of human menin-MLL interaction, wild-type MLL peptide. Fluorescence polarization, fluorescein-MLL peptide displacement from menin. FP activity change, % at 61.4 µM. 290,000 tested, under 10 active; inconclusive = falling polarisation curve, or a change in total fluorescence; inactive = total fluorescence flat and polarisation flat or rising; no compound was filed as active; the % refers to the polarisation; negative = inhibition;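 further: % of control where 0% means no effect; inhibitors lower the polarisation; unlabelled MLL peptide was the positive control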
CtBP-E1A inh – blocks the CtBP interaction with E1A | AlphaScreen GST-E1A/His-CtBP binding, 1536-well; active compounds read low; control for the full effect not named in the record | AID 651724 | actives 0.49% (n = 340,000) | activity change, % (test concentration not listed); in the data active means activity change below about -65%; inconclusive means about -30% to -65%; inactive means above about -30%; further: on the % scale 0 is the no-effect control and ±100 the full control effect
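Steps: dispense buffer (Tris pH 8.0, NaCl 300 mM, TCEP 1 mM, BSA, Tween 20); add 5X protein mix (GST-E1A, His-CtBP, 125 nM each); pin 23 nL compound; 2 h at 37 °C, dark; add 5X beads (50 ug/mL); 1 h; read.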
Active calls of the source: *; ? = inconclusive; · = not tested or not shown; & = joins results of further samples; [ ] = another dose, or the depositor's remark. Only part of the results is shown; the hit share may differ from the screen's.

1) CCCCC(=O)O[C@]1(C(=O)CO)[C@H](C)C[C@H]2[C@@H]3CCC4=CC(=O)C=C[C@]4(C)[C@@]3(F)[C@@H](O)C[C@@]21C
2) CCCOC(C(=O)OC1CCN(C)CC1)(c1ccccc1)c1ccccc1
3) CC(=O)Nc1ncc([N+](=O)[O-])s1
4) O=C(Nc1ccc(Cl)c(Cl)c1)C1CC1
5) CCCCCCCCCCCCCCNCCO
6) CC(=O)N1CC(O)CC1C(=O)O (stereo not given)
7) Cc1cccc(C)c1NC(=O)CN(CC(=O)O)CC(=O)O
8) CCCC(=O)O[C@]1(C(=O)COC(C)=O)CC[C@H]2C3C[C@H](F)C4=CC(=O)C=CC4(C)[C@@]3(F)[C@@H](O)CC21C (stereo not given in full)
9) OCc1ccccn1
10) CC1OC(OCC2OC(Oc3cc(O)c4c(c3)OC(c3ccc(O)cc3)CC4=O)C(O)C(O)C2O)C(O)C(O)C1O (stereo not given)

assay / compound	1	2	3	4	5	6	7	8	9	10
ClpP mod	·	·	·	·	·	·	·	·	·	·
Sfp PPTase inh	-14%	16%	9%	8%	-15%	6%	45µM*	5%	4%	-1%
Menin MLL FP FL	-0.9	6.9	-1.4	-1.6	-1.4	2.3	-4.0	-5.8	-0.7	-4.0
CtBP-E1A inh	·	·	·	·	·	·	·	·	·	·

Whole records as entered above.
Listed for CC(=O)Nc1ncc([N+](=O)[O-])s1 → ClpP mod: ·; Sfp PPTase inh: 9%; Menin MLL FP FL: -1.4; CtBP-E1A inh: ·
Listed for CC1OC(OCC2OC(Oc3cc(O)c4c(c3)OC(c3ccc(O)cc3)CC4=O)C(O)C(O)C2O)C(O)C(O)C1O (stereo not given) → ClpP mod: ·; Sfp PPTase inh: -1%; Menin MLL FP FL: -4.0; CtBP-E1A inh: ·

Carrying on.
11) Cc1cccc(Nc2cc(Cl)nc(SCC(=O)O)n2)c1C
12) NCCNC(=O)c1ccc(Cl)cn1
13) C#C[C@@]1(O)CCC2C3CCC4=CC(=O)CCC4C3CC[C@@]21CC (stereo not given in full)
14) C/C=C/C=N/NC(=O)c1ccncc1
15) Nc1c2ccccc2nc2ccccc12 (tested in a mixture with another compound)
16) O=P(O)(O)OC(CO)CO
17) COc1cc([C@@H]2Oc3cc([C@H]4Oc5cc(O)cc(O)c5C(=O)[C@H]4O)ccc3O[C@H]2CO)ccc1O
18) CNC1CCCN(c2c(F)cc3c(=O)c(C(=O)O)cn(C4CC4)c3c2OC)C1 (stereo not given)
19) CCC(=O)O[C@@]1(C(=O)SCF)[C@@H](C)C[C@H]2[C@@H]3C[C@@H](F)C4=CC(=O)C=C[C@@]4(C)[C@]3(F)[C@@H](O)C[C@]21C
20) COc1ccc(-c2cc(=O)c3c(O)c(OC)c(OC)c(OC)c3o2)cc1OC

assay / compound	11	12	13	14	15	16	17	18	19	20
ClpP mod	·	·	·	·	·	·	·	·	·	·
Sfp PPTase inh	21%&17%&22%&1%&-1%	?	-15%	-22%	-3%	-6%	-30%	19%	21%	-5%
Menin MLL FP FL	?	0.6	-5.0	-2.9	14	0.9	?	7.3	-1.0[24.8 µM]	2.0
CtBP-E1A inh	·	·	·	·	·	·	·	·	·	·

21) CC[C@@]1(O)CC2CN(CCc3c([nH]c4ccccc34)[C@](C(=O)OC)(c3cc4c(cc3OC)N(C)C3[C@@](O)(C(=O)OC)C(OC(C)=O)[C@]5(CC)C=CCN6CC[C@@]43C65)C2)C1 (stereo not given in full)
22) CC1(C)OC2CC3C4CC(F)C5=CC(=O)C=C[C@@]5(C)[C@@]4(F)C(O)C[C@@]3(C)[C@]2(C(=O)CO)O1 (stereo not given in full)
23) COc1ccccc1OC[C@H](O)COC(N)=O
24) CCCCNC(=O)[C@@H]1Cc2ccccc2N1C(=O)[C@H](N)CC
25) Cc1ccc2nc(N)[nH]c(=O)c2c1Sc1ccncc1
26) NS(=O)(=O)c1cc(-c2nn[nH]n2)c(NCc2cccs2)cc1Cl
27) CC1CCC(C(C)C)C(=O)C1 (stereo not given)
28) Cc1ccc2nc(NCCN)c3ncc(C)n3c2c1
29) CC1CC2C3CC(F)C4=CC(=O)C=C[C@@]4(C)[C@@]3(F)C(O)C[C@]2(C)[C@]1(O)C(=O)COC(=O)C(C)(C)C (stereo not given in full)
30) CCOc1ccc(NC(=O)Cn2cc(C(=O)c3cccs3)c3ccccc32)cc1

assay / compound	21	22	23	24	25	26	27	28	29	30
ClpP mod	·	·	·	·	·	·	·	·	·	-26%
Sfp PPTase inh	10%	17%	14%	-36%	8%	23%	0%	-1%	12%	·
Menin MLL FP FL	8.9	-0.5	-4.9[24.8 µM]	0.2	2.1	0.9	0.2	-0.7	1.0	·
CtBP-E1A inh	·	·	·	·	·	·	·	·	·	·

Individual results from the list:
entry 30 – ClpP mod: -26%
entry 27 – Sfp PPTase inh: 0%

(further entries)
31) Cc1ccnc(NC(c2cccc(O)c2)c2ccc3ccc(C)nc3c2O)c1 (stereo not given)
32) Cn1c(=O)n(-c2ccc(C(C)(C)C#N)cc2)c2c3cc(-c4cnc5ccccc5c4)ccc3ncc21
33) CCC(Sc1nc2ccccc2c2nc(CCn3cncc3C)nn12)C(=O)Nc1cccc(OC)c1 (stereo not given)
34) Cc1ccc(NC(=O)Cn2c(=O)n(CCC(=O)N3CCc4ccccc4C3)c(=O)c3ccccc32)c(C)c1
35) Cc1cccc2nc(-c3ccccn3)c(Nc3ccccc3)n12
36) Cc1ccccc1Cc1c(C)nc2c(-c3ccccc3)c(C)[nH]n2c1=O
37) COc1ccc(OCC(=O)Nc2cc(-c3nc4ccccc4s3)ccc2C)cc1
38) COc1ccc(CNC(=O)Nc2ccc3c(c2)N(C)C(=O)c2ccccc2S3)cc1OC
39) Cc1ccc(Nc2nc3ccccc3c3nnc(C)n23)c(C)c1
40) Cc1cccc(NC(c2ccccc2F)c2ccc3ccc(C)nc3c2O)n1 (stereo not given)
41) NC1(c2ccc(-c3nc4ccn5c(=O)[nH]nc5c4cc3-c3ccccc3)cc2)CCC1
42) Cc1ccccc1C(=O)Nc1cccc(-c2nc3cccnc3s2)c1
43) COc1ccc(-n2[nH]c3c(cnc4ccccc43)c2=O)cc1

assay / compound	31	32	33	34	35	36	37	38	39	40	41	42	43
ClpP mod	0.7%	4.3%[115 µM]	-2.1%	-2.3%	-3.0%	4.3%	-28%	-4.1%	-7.2%	-3.2%	4.7%	?	-2.6%
Sfp PPTase inh	·	·	·	·	·	·	·	·	·	·	·	·	·
Menin MLL FP FL	·	·	·	·	·	·	·	·	·	·	·	·	·
CtBP-E1A inh	·	·	·	·	·	·	·	·	·	·	·	·	?

Arranged by SMILES length (descending): part of the list above.
29) CC1CC2C3CC(F)C4=CC(=O)C=C[C@@]4(C)[C@@]3(F)C(O)C[C@]2(C)[C@]1(O)C(=O)COC(=O)C(C)(C)C (stereo not given in full)
34) Cc1ccc(NC(=O)Cn2c(=O)n(CCC(=O)N3CCc4ccccc4C3)c(=O)c3ccccc32)c(C)c1
32) Cn1c(=O)n(-c2ccc(C(C)(C)C#N)cc2)c2c3cc(-c4cnc5ccccc5c4)ccc3ncc21
33) CCC(Sc1nc2ccccc2c2nc(CCn3cncc3C)nn12)C(=O)Nc1cccc(OC)c1 (stereo not given)
38) COc1ccc(CNC(=O)Nc2ccc3c(c2)N(C)C(=O)c2ccccc2S3)cc1OC
30) CCOc1ccc(NC(=O)Cn2cc(C(=O)c3cccs3)c3ccccc32)cc1
36) Cc1ccccc1Cc1c(C)nc2c(-c3ccccc3)c(C)[nH]n2c1=O
31) Cc1ccnc(NC(c2cccc(O)c2)c2ccc3ccc(C)nc3c2O)c1 (stereo not given)
40) Cc1cccc(NC(c2ccccc2F)c2ccc3ccc(C)nc3c2O)n1 (stereo not given)
43) COc1ccc(-n2[nH]c3c(cnc4ccccc43)c2=O)cc1
39) Cc1ccc(Nc2nc3ccccc3c3nnc(C)n23)c(C)c1
35) Cc1cccc2nc(-c3ccccn3)c(Nc3ccccc3)n12

assay / compound	29	34	32	33	38	30	36	31	40	43	39	35
ClpP mod	·	-2.3%	4.3%[115 µM]	-2.1%	-4.1%	-26%	4.3%	0.7%	-3.2%	-2.6%	-7.2%	-3.0%
Sfp PPTase inh	12%	·	·	·	·	·	·	·	·	·	·	·
Menin MLL FP FL	1.0	·	·	·	·	·	·	·	·	·	·	·
CtBP-E1A inh	·	·	·	·	·	·	·	·	·	?	·	·

25) Cc1ccc2nc(N)[nH]c(=O)c2c1Sc1ccncc1
28) Cc1ccc2nc(NCCN)c3ncc(C)n3c2c1
27) CC1CCC(C(C)C)C(=O)C1 (stereo not given)

assay / compound	25	28	27
ClpP mod	·	·	·
Sfp PPTase inh	8%	-1%	0%
Menin MLL FP FL	2.1	-0.7	0.2
CtBP-E1A inh	·	·	·

Source: PubChem
